High-throughput results deposited in PubChem BioAssay by several laboratories.
RGS16-Gao: RGS16-Galphao interaction regulator (human); O15492+P09471; bead-based flow cytometry RGS16-Galphao binding, fluorescence; actives lie on both sides; binding response (% of control), % at 10 µM; actives 0.38% (n = 220,000); AID 1441;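 active means below 25% or above 175%, edge rows of some plates excepted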;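 further: Galphao activated by GDP with aluminum fluoride before binding; 100% = wells without compound and 0% = beads without RGS; some results beyond the cut were filed as inactive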
Insulin prom inh: TRM-6 insulin promoter activity inhibition; actives 0.9% (n = 130,000); TRM-6 cells (human fetal islet line), insulin promoter-eGFP reporter, imaging; reporter expression induced with tamoxifen; AID 1273; inhibition, % at 2 µM;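 active means inhibition above the mean plus 3 SD, with well images judged a real hit on visual review, cut at about 60% in these data, passing the limit was not always enough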
HSV augment: HSV replication enhancement. HSV replication augmentation in cells, fold increase. maximum fold increase. actives 0.005% (n = 220,000). AID 1956;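 active means peak rise of 1.5-fold or more in the series; tested in PC3 cells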;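 further: first round at 10 µM; read as green reporter fluorescence; hits show the peak of a series up to 25 µM; 1 = signal of infected wells without compound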
PKD1 inh: inhibitors of human PKD1 kinase; Q15139; PKD1 kinase fluorescence polarization assay; inhibition, %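 (about 10 µM by stock and volumes)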; actives 0.056% (n = 200,000);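 active means inhibition of 50% or more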;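 further: controls were vehicle for no effect and a reference inhibitor for full effect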
Target sequence (Q15139 whole entry, looked up): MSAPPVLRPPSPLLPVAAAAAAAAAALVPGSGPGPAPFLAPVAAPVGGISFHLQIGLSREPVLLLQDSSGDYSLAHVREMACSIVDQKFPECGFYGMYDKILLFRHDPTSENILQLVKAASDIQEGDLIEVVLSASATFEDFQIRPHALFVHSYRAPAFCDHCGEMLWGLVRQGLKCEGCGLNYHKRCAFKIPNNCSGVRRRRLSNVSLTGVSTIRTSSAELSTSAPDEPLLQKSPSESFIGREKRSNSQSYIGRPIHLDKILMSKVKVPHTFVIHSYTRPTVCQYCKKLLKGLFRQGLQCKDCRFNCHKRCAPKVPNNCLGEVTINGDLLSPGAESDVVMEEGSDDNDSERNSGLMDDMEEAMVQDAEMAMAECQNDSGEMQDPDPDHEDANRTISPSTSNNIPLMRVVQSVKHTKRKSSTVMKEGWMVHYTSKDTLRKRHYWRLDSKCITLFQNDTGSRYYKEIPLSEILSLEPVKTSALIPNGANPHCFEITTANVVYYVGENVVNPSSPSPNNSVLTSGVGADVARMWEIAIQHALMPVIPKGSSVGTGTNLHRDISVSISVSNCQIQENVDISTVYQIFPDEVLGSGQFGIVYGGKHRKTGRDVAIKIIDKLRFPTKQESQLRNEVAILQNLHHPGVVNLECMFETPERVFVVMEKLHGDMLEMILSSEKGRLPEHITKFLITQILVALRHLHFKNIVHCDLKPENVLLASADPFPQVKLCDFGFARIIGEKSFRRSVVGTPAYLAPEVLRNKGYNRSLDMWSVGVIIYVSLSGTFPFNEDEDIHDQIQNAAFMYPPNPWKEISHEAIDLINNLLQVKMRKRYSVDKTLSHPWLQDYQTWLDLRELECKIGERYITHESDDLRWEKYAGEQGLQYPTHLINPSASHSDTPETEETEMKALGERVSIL
GALR2 agonist: GALR2 (human) receptor agonism; GALR2-expressing cells, agonist activation read-out; O43603; actives 0.48% (n = 140,000); activation, %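 (tested at 5 µM)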;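 active means above mean plus 3 SD of all compounds, about 5% in these data, not always enough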;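 further: 0% = vehicle buffer wells and 100% = reference agonist at full effect; tested in CHO reporter cells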
Insulin prom inh cell count: further read-out of Insulin prom inh, marked with its call; normalized cell count, %; measured here: cell count, toxicity; reference of the scale not given here;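 cells exposed to compound for 48 h; stained nuclei by imaging scaled within each plate; lower means fewer cells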
HSV augment primary fold: second read-out of HSV augment, no call of its own (marks repeat the call); fold increase; compound at 10 µM; measured here: primary screen fold increase 10 uM; tested in PC3 cells;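 GFP signal in the first replicate; 1 = infected wells without compound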
An asterisk follows results filed as active; i = inactive; . = no result given. Rows were taken by chance, and some 1.3% of all compounds hit somewhere here.

SMILES	RGS16-Gao	Insulin prom inh	Insulin prom inh cell count	HSV augment	HSV augment primary fold	PKD1 inh	GALR2 agonist
CN(C)/C=C(\C#N)C(=O)c1cccnc1Oc1cccc(F)c1	101	-30	112	i	0.86	6	0.8
Cc1oc2cc(OC(C)C(=O)O)ccc2c(=O)c1Oc1ccccc1 (centres undefined)	85	3	115	i	1	-18	-2.2
Cc1c(Cl)cccc1NC(CC(=O)c1ccccc1)C(=O)O (centres undefined)	49	-4	111	i	0.91	-11	-1.7
O=C(COC(=O)c1ccncc1)Nc1cc(Cl)ccc1Cl	105	-4	69	i	0.85	-1	-0.6
CC(=O)Nc1ccc(S(=O)(=O)Nc2ccc3c(c2)OCCO3)cc1	168	.	.	i	1.1	-4	.
CCSc1nnc(NC(=O)CSc2c(Cl)cccc2Cl)s1	108	-13	140	i	0.98	-3	-0.8
CCc1nnc(NC(=O)CSc2nnc(CNc3ccc(OC)cc3)n2C)s1	38	18	85	i	1	-10	-1.4
COc1ccc(-n2c(Cc3cccn3C)nnc2SCC(=O)Nc2ccc(F)cc2)cc1	105	-10	206	i	0.97	-11	-1.3
Cc1cc(C)c(C(=O)CN2C(=O)NC3(CCC(C)CC3)C2=O)cc1C (centres undefined)	109	-89	32	i	1.1	-12	.
CC1CC(C)CN(C(=S)Nc2ccc3nc4n(c(=O)c3c2)CCCCC4)C1 (centres undefined)	94	-26	83	i	0.83	-9	0.1
Cc1cc(=O)oc2cc(OCc3ccc(C(=O)OCC(=O)Nc4ccc(N(C)C)cc4)cc3)ccc12	97	.	.	i	0.97	-7	.
Cc1onc(-c2ccc(Cl)cc2Cl)c1-c1csc(COc2ccccc2)n1	104	.	.	i	1.2	.	.
COC(=O)c1ccccc1NC(=O)CN1CCC(NC(=O)c2ccccc2C)CC1	104	.	.	i	0.82	-5	0.4
N#Cc1ccc(COC(=O)c2ccc3c(=O)[nH]c(CN4CCOCC4)nc3c2)cc1	102	.	.	i	0.87	-10	-0.7
CCN(CC)S(=O)(=O)c1ccc2[nH]cc(C(=O)NCCN3CCCCC3C)c(=O)c2c1 (centres undefined)	97	.	.	.	.	0	-0.7
CC(=O)NCC(=O)OCC(=O)c1ccc2ccccc2c1	100	7	62	i	0.92	0	-0.8
N#Cc1c(-c2ccco2)cc(C2CC2)nc1SCC(=O)c1ccccc1	100	.	.	i	1.1	-17	-1.3
Cc1cc(=O)[nH]c(SCc2nc3ncccn3c2Br)n1	100	18	78	i	0.89	6	1.1
Cc1c(O)c(CN2CCCCC2)cc2c1oc(=O)c1ccccc12	103	-10	97	i	0.8	-3	-1.6
CCOC(=O)N1CCN(C(=O)C2CCN(c3ncnc4c3sc3cccc(F)c34)CC2)CC1	105	13	57	i	1	-9	1.6
Cn1nnnc1SCC(=O)NNC(=O)c1ccc(Cl)cc1	105	.	.	i	0.99	5	.
O=C1c2ccccc2C(=O)C12OC(c1ccccc1)C1(C(=O)c3ccccc3C1=O)C2c1ccc([N+](=O)[O-])cc1 (centres undefined)	104	38	106	i	1.1	-14	-1.6
CC[n+]1c(C)sc2sc3ccccc3c21	98	.	.	i	1.1	.	.
S=C(Nc1ccc(Cl)cc1Cl)NC1CCCCC1	100	.	.	i	0.95	4	-2.8
C=CCn1c(SCC(=O)Nc2cc(NC(C)=O)ccc2OC)nnc1-c1cccnc1	96	.	.	i	0.84	-4	-0.3

The final 2 compounds of the section above are carried over, then new ones follow:
SMILES	RGS16-Gao	Insulin prom inh	Insulin prom inh cell count	HSV augment	HSV augment primary fold	PKD1 inh	GALR2 agonist
S=C(Nc1ccc(Cl)cc1Cl)NC1CCCCC1	100	.	.	i	0.95	4	-2.8
C=CCn1c(SCC(=O)Nc2cc(NC(C)=O)ccc2OC)nnc1-c1cccnc1	96	.	.	i	0.84	-4	-0.3
CC(C)C(C)NC(=O)COC(=O)c1cc(S(=O)(=O)N(C)C)ccc1N1CCCC1 (centres undefined)	106	33	104	i	0.97	-6	.
CCCCC[n+]1ccn(C2=C([O-])c3ccccc3C(=O)/C2=N\S(=O)(=O)c2ccccc2)c1	103	22	90	i	1	-5	-1.1
O=[N+]([O-])c1ccc(N(c2ccccc2)c2ccccc2)cc1	75	.	.	i	0.97	-7	-1.4
Cc1ccc(-c2nnc(SCc3nc(N)nc(Nc4ccccc4C)n3)n2N)cc1	102	20	131	.	.	-9	-3.6
NS(=O)(=O)c1ccc(NC(=S)N2CCN(c3ccc(Cl)c(Cl)c3)CC2)cc1	101	-29	73	i	0.72	-10	0.7
Cc1cc(C)cc(OCC(=O)Nc2ccc(N3CCN(C(=O)c4ccco4)CC3)cc2)c1	100	-33	126	i	0.77	-6	-3.9
CC1CCCC(C)N1c1nnc(NC(=O)c2cc(-c3ccc(Br)cc3)on2)s1 (centres undefined)	103	.	.	.	.	1	-0.3
CCOC(Cn1c(-c2ccc(OC)cc2)nc2ccccc21)OCC	101	-15	115	i	0.89	-1	-0.6
Cc1cc(C)n(CC2CC(=O)N(c3ccc(Cl)cc3)C2=O)n1 (centres undefined)	102	.	.	i	1.2	.	.
O=C(O)c1ccc(N/N=C2/CCCc3ccccc32)cc1	104	.	.	i	1	.	.
Cc1cc(NC(=O)c2cc(C)on2)n(-c2ccccc2)n1	101	-57	140	i	0.9	-11	-1.2
COc1ccccc1N1CCN(C(=O)c2ccc(Cl)c(S(=O)(=O)N3CCCC3)c2)CC1	102	-18	115	i	0.92	-7	.
Cc1cc(C)c(C#N)c(SCc2ccc(F)cc2)n1	112	.	.	i	0.93	-1	.
COC(=O)CCNc1n[nH]c(=O)[nH]c1=O	104	-61	68	i	1	-4	.
CCOc1ccccc1NC(=O)C1CCN(S(=O)(=O)c2c(C)noc2C)CC1	98	11	156	i	1.1	4	0.8
CCCS(=O)(=O)c1c(S(=O)(=O)CCC)c2c3ccccc3ccn2c1C(=O)OC	103	53	147	i	0.84	-11	0.3
CCOC(=O)CN(C(=O)COc1nc(C)cc(C)c1C#N)c1cccc(Cl)c1	104	.	.	i	0.97	.	.
O=c1[nH]nc(CNc2cccc(C(F)(F)F)c2)c2ccccc12	101	.	.	i	0.71	-1	.
CC(C)c1onc(C(=O)Nc2cccc(Cl)c2)c1[N+](=O)[O-]	105	18	91	i	0.94	-3	.
CC1CN(Cc2nc3c(c(=O)n(C)c(=O)n3C)n2CCCc2ccccc2)CC(C)O1 (centres undefined)	.	17	95	i	1	-6	-1.2
O=C(COc1ccccc1)NCCc1nc2ccccc2[nH]1	110	.	.	i	0.86	-12	-0.8
CCC(=O)Nc1nc2ccc(NC(C)=O)cc2s1	139	23	65	i	1	0	-2.4
COc1cccc(OCc2nnc(SCC(=O)NNC(=O)C3CCCCC3)n2C)c1	101	-20	93	i	1	-6	.
CC(C)(C)C(=O)/C=C(\N)c1ccccn1	104	17	96	i	0.89	1	-0.1
Cc1cnc(C)c(N2CCC(C(=O)NCc3cccs3)CC2)n1	100	0	114	i	0.99	-12	-1.2
(cont.)
SMILES	RGS16-Gao	Insulin prom inh	Insulin prom inh cell count	HSV augment	HSV augment primary fold	PKD1 inh	GALR2 agonist
CC(C)(C)NS(=O)(=O)c1cc(C(=O)Nc2sccc2C#N)ccc1Cl	110	0	45	i	1.1	-3	-2.0
CCN(CC)S(=O)(=O)c1ccc(N2CCCC2)c(NC(=O)Cc2ccccc2)c1	82	.	.	i	0.85	.	.
CCN(CC)S(=O)(=O)c1ccc(C(=O)NC(=S)N(CCC#N)Cc2cccnc2)cc1	101	.	.	i	0.89	1	.
O=C(NCCCN1CCOCC1)C(=O)N/N=C/c1c(Cl)cccc1Cl	130	-6	76	i	1.1	1	.
O=C(NCc1ccco1)c1ccc(=O)[nH]n1	89	.	.	i	0.96	-5	-1.4
CC(C)(C)c1nc2sc3c(c2c(=O)o1)CCCC3	91	19	84	i	0.81	5	-2.6
CCC(C)(C)NC(=O)C(c1ccc(C)cc1)N(Cc1ccco1)C(=O)CCC(=O)Nc1nccs1 (centres undefined)	102	2	113	i	0.95	-3	-4.9
COc1ccccc1Cn1c(-c2ccccc2OC)nc2ccccc21	101	-7	79	i	0.98	-3	0.4
Cn1cccc1/C=N/NC(=O)C12CC3CC(CC(C3)C1)C2	105	.	.	i	0.92	-6	-1.2
CCCCn1c(=O)nc2n(-c3ccc(Cl)cc3)c3ccccc3cc-2c1=O	109	36	134	i	0.96	-1	-0.5
CCC(OC(=O)CN1C(=O)C(=O)c2ccccc21)C(=O)Nc1ccc(S(N)(=O)=O)cc1 (centres undefined)	38	-40	53	i	0.89	-13	.
Cc1nn(C)c(Oc2ccccc2)c1CCNS(=O)(=O)c1ccccc1	100	.	.	i	0.88	-7	-1.3
CCOc1ccc(/C(O)=C2/C(=O)C(=O)N(CCOCCO)C2c2ccccc2)cc1 (centres undefined)	103	0	115	i	0.99	-9	0.1
CCOC(=O)N1CCN(CC(=O)Nc2c(C(=O)OC)[nH]c3ccccc23)CC1	103	6	107	i	0.9	2	-1.7
COCCn1c(C)cc(C(=O)CSc2ccc(NC(C)=O)cc2)c1C	68	15	127	i	0.92	-4	-1.4
O=[N+]([O-])c1cccc2ccc(/C=C/c3ccc(F)cc3)nc12	103	4	72	i	0.8	0	0.8
CCOc1cc(/C=N/O)cc(Br)c1OCC(=O)NCc1ccccc1	103	47	109	i	0.92	-2	0.3
Cc1nc2ncnn2c(N2CCN(C(=O)Cc3cccs3)CC2)c1C	98	-308	59	i	0.93	-4	-0.5
COc1ccc(N2C(=O)CC(N3CCN(c4ccccc4F)CC3)C2=O)cc1 (centres undefined)	103	0	117	i	0.98	0	-1.1
COc1ccc(CCN2CN(S(=O)(=O)c3ccc(OC)cc3)c3nc4ccccc4nc32)cc1	101	-7	112	i	0.96	-4	-0.1

Of the compounds above, 14 have a Cl atom:
SMILES	RGS16-Gao	Insulin prom inh	Insulin prom inh cell count	HSV augment	HSV augment primary fold	PKD1 inh	GALR2 agonist
Cc1c(Cl)cccc1NC(CC(=O)c1ccccc1)C(=O)O (centres undefined)	49	-4	111	i	0.91	-11	-1.7
O=C(COC(=O)c1ccncc1)Nc1cc(Cl)ccc1Cl	105	-4	69	i	0.85	-1	-0.6
CCSc1nnc(NC(=O)CSc2c(Cl)cccc2Cl)s1	108	-13	140	i	0.98	-3	-0.8
Cc1onc(-c2ccc(Cl)cc2Cl)c1-c1csc(COc2ccccc2)n1	104	.	.	i	1.2	.	.
Cn1nnnc1SCC(=O)NNC(=O)c1ccc(Cl)cc1	105	.	.	i	0.99	5	.
S=C(Nc1ccc(Cl)cc1Cl)NC1CCCCC1	100	.	.	i	0.95	4	-2.8
NS(=O)(=O)c1ccc(NC(=S)N2CCN(c3ccc(Cl)c(Cl)c3)CC2)cc1	101	-29	73	i	0.72	-10	0.7
Cc1cc(C)n(CC2CC(=O)N(c3ccc(Cl)cc3)C2=O)n1 (centres undefined)	102	.	.	i	1.2	.	.
COc1ccccc1N1CCN(C(=O)c2ccc(Cl)c(S(=O)(=O)N3CCCC3)c2)CC1	102	-18	115	i	0.92	-7	.
CCOC(=O)CN(C(=O)COc1nc(C)cc(C)c1C#N)c1cccc(Cl)c1	104	.	.	i	0.97	.	.
CC(C)c1onc(C(=O)Nc2cccc(Cl)c2)c1[N+](=O)[O-]	105	18	91	i	0.94	-3	.
CC(C)(C)NS(=O)(=O)c1cc(C(=O)Nc2sccc2C#N)ccc1Cl	110	0	45	i	1.1	-3	-2.0
O=C(NCCCN1CCOCC1)C(=O)N/N=C/c1c(Cl)cccc1Cl	130	-6	76	i	1.1	1	.
CCCCn1c(=O)nc2n(-c3ccc(Cl)cc3)c3ccccc3cc-2c1=O	109	36	134	i	0.96	-1	-0.5
